Bioassay records deposited in PubChem BioAssay by several laboratories.
Autofluor counter – compound fluorescence in toxin protease inhibitor counterscreen; compound autofluorescence counterscreen, microsphere flow cytometry; hits give high values; fluorescence intensity (concentration not given with the values); 360,000 tested, 3.1% active; AID 624483;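 active means at least 3 SD above the mean of all compounds, about 16000 in these data; inconclusive means too few beads counted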;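 further: 100 nL of 1 mM stock went into each well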
Sa ugtP lethal – kills S. aureus RN4220 lacking UgtP | growth inhibition, % (concentration not given with the values) | AID 1259309 | S. aureus RN4220 ugtP deletion, OD600 growth, 16 h; some inactives read as strong as hits | 330,000 tested, 0.54% active;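 active means z-score under -3 and OD600 up to 0.15 on both plates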;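 further: plate controls were untreated wells for no effect and antibiotic for full effect; wells of about 80 µL received 100 nL stock; the first replicate is given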
BJeLR viability – kills HRASV12-expressing BJeLR cells; inhibition, % (test concentration not listed); 300,000 tested, 0.17% active; AID 1554; BJeLR (HRASV12) viability, CellTiter-Glo ATP luminescence, 48 h; reference of the scale not given here;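 active means replicate mean above 50%; inconclusive means above 50% but judged a plate artefact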;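 further: 50 nL library stock added to about 25 µL; numbers are from one replicate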
Mtb hypoxia inh – Mtb hypoxia fluorescent reporter inhibition; M. tuberculosis hypoxia-regulated fluorescent reporter, fluorescence; fluorescence inhibition, % (concentration not given with the values); 300,000 tested, 0.1% active; AID 1159583;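 active means 35 to 45% if threefold the growth effect, above 45% if 1.5-fold the growth effect; inactive means the rest, general growth blockers included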;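 further: wells of about 50 µL received 100 nL stock; 0% = vehicle wells and 100% = reference inhibitor wells; whole bacteria with a GFP reporter of the hypoxia response; strong numbers were not always called active; many hits fall short of the cut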
PrP UTR inh – suppresses PrP 5' UTR mRNA reporter expression; cell-based PrP 5' UTR mRNA reporter, plate reader; inhibition, % (no concentration beside the values); 340,000 tested, 0.35% active;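 active means every replicate at 50% or more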;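 further: 0 = median of the neutral control wells; tested in H4 reporter cells; numbers are from one replicate; inactives centre near -14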
RN4220 kill – S. aureus RN4220 growth inhibition; OD600, 16 h; inhibition, % (test concentration not listed); 330,000 tested, 0.33% active; AID 1259311;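 active means z-score of -3 or lower and OD600 up to 0.18 on both plates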;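 further: plate controls were untreated cells for no effect and reference antibiotic for full effect; stock transfer was 100 nL into about 80 µL; one replicate is shown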
Mtb hypoxia inh growth – further read-out of Mtb hypoxia inh, marked with its call; growth inhibition, %; measured here: M. tuberculosis growth (absorbance);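 0% = vehicle and 100% = reference antibiotic; read after six days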
An asterisk follows results filed as active; ? = inconclusive; . = not tested or not shown; & = joins results of further samples.

SMILES	Autofluor counter	Sa ugtP lethal	BJeLR viability	Mtb hypoxia inh	Mtb hypoxia inh growth	PrP UTR inh	RN4220 kill
O=C(NCCCN1CCOCC1)c1cc(-c2ccc(Br)cc2)nc2ccccc12	6378	7	0	13	0	-1	-2.2
O=Cc1ccc(-c2ccccc2C(=O)O)o1	3091	1	-1	-2	-20	-13	1.0
Cc1cc(C(=O)COC(=O)c2ccc(NC(=O)CC#N)cc2)c(C)n1CCc1ccc(F)cc1	3933	6	.	10	4	-32	5.1
COc1ccc(N(CC(=O)N2CCCC2)S(C)(=O)=O)cc1	4166	12	-11	7	-1	-17	4.9
CCOC(=O)Cn1c(=O)oc2cc(S(=O)(=O)N3CCN(c4ccccn4)CC3)ccc21	4128	10	11	10	7	-14	2.5
Cn1c(SCc2cccc3ccccc23)nnc1-c1ccco1	2599	-3	-7	11	15	-22	-1.8
O=C(c1ccc(Br)o1)N(c1ccccn1)C1CCCCC1	9932	0	1	7	6	-18	2.8
CSc1nnc(-c2ccc(O)cc2)n1C	21757*	8	-5	2	-1	-16	3.1
O=C(COC(=O)c1ccccc1Oc1ccccc1)NC1CCS(=O)(=O)C1 (centres undefined)	3217	-5	-2	6	-6	-4	2.6
COc1ccccc1-c1nc(S(=O)(=O)c2ccc(Cl)cc2)c(N(C)C)o1	7470	8	-2	10	8	-8	5.8
Cc1cc(-c2n[nH]c(=S)n2Cc2ccco2)nn1C	10195	0	-7	-1	5	-21	2.2
Cc1cc(C)cc(N(C(=O)C2CCCC2)C2C=CS(=O)(=O)C2)c1 (centres undefined)	13235	0	-2	9	9	-12	7.0
Cc1ccc(C)c(S(=O)(=O)Nc2cc(SCC(=O)O)c(O)c3ccccc23)c1	2074	3	.	12	9	-30	12
O=c1c(-c2cccc3ccccc23)[n+]([O-])c2ccccc2n1O	4652	13	14	.	.	-9	7.1
CN(C)CCCN(C(=O)c1ccc(S(=O)(=O)N(C)C2CCCCC2)cc1)c1nc2ccc(F)cc2s1	.	-7	9	6	2	-15	-1.3
CCN1CCN(C(=O)c2nn(-c3ccccc3)c(=O)c3ccccc23)CC1	18559*	4	-6	0	4	6	0.5
COc1ccc(/C=N/NC(=O)c2cc(O)c(O)c(O)c2)cc1Cn1cc([N+](=O)[O-])cn1	3964	.	1	.	.	-19	.
COc1ccc(-c2ccc(=O)n(Cc3ccccc3)n2)cc1	3358	0	10	8	-2	47	2.0
COC(=O)C1Sc2[nH]c(=O)sc2C2c3ccccc3OC(=O)C12 (centres undefined)	9213	2	-1	19	4	-27	8.0
Cn1nccc1C(=O)N1CCN(c2cccc(C(F)(F)F)c2)CC1	5748	1	3	5	0	-3	1.4
CC1=CC(=O)C(C(C)C)=C/C1=N\OC(=O)c1cccc2nc(C)oc12	9791	.	1	.	.	-9	.
C=CCc1cccc2cc(C(=O)N3CCN(C(=O)c4ccccc4)CC3)c(=O)oc12	3734	-1	3	7	9	-1	2.1
O=[N+]([O-])c1cc(S(=O)(=O)N2CCCC2)ccc1N/N=C1/CCCc2ccccc21	2091	.	-8	.	.	-9	.
CCOC(=O)CC1C(=O)NCCN1c1nc2ccc(C)cn2c(=O)c1/C=C1\SC(=S)N(CC(C)C)C1=O (centres undefined)	9487	2	4	14	-6	-9	2.1
COc1ccc(-n2c(SCC(=O)NCC3CCCO3)nc3n[nH]c(C)c3c2=N)cc1 (centres undefined)	2124	7	0	.	.	14	5.7
O=C(NCCCN1CCOCC1)c1ccc2c(=O)n(CCc3ccccc3)c(=O)[nH]c2c1	4170	2	0	20	20	-18	2.1
COCCC(=O)NC1CCCc2c1cnn2-c1cccc(C)c1C (centres undefined)	4145	5	-7	10	0	-39	-1.4
O=C1Nc2ccccc2C1=Nc1ccc(F)cc1	2953	12	-6	14	0	-11	1.6
COC(=O)c1ccc(-c2ccco2)n1Cc1cc(C)ccc1C	6575	14	-4	4	-4	-1	0.1
COc1ccc(OC(C)C(=O)NC2CC(C)(C)NC(C)(C)C2)cc1 (centres undefined)	9900	2	-1	1	-2	-13	4.7
Cc1cnc(C(=O)Nc2ccc3c(c2)CCC3)cn1	3505	9	7	.	.	-14	9.0
Cc1cccc(CNC(=O)c2ccc3c(c2)N(C)CCS3)c1	6723	-1	-2	4	10	-6	7.8
COc1ccc(C=NNC(=O)CCc2c(C)n[nH]c2C)cc1O	.	2	.	11	6	.	0.0
CC(C)C(=O)NC(Nc1cc(C(F)(F)F)ccc1Cl)C(Cl)(Cl)Cl (centres undefined)	2226	-19	11	-2	-4	-12	2.3
Cc1ccc(N(CC(=O)Nc2cccc(Cl)c2C)S(C)(=O)=O)cc1	2981	3	4	12	8	-10	-1.4
O=C(C1=CC(c2ccc(Br)cc2)CC(OCCCCO)O1)N1CCOCC1 (centres undefined)	.	0&2	.	2&7	-2&6	.	7.2&8.7
CCOC(=O)C1=C(C)NC(SCC(=O)Nc2cc(C)on2)=C(C#N)C1c1cccs1 (centres undefined)	11868	0	0	5	0	-12	3.3
Cc1ccc(C(=O)COC(=O)c2nc3nccc(C)n3n2)c(C)c1	4766	6	.	16	7	-19	12
O=C(c1cc(-c2ccccc2)nn1-c1ccccc1)N1CCN(S(=O)(=O)c2cccc(F)c2)CC1	6879	2	1	0	1	9	1.3
CCOC(=O)c1c(S(=O)(=O)N2CCN(c3ccc(C(C)=O)cc3)CC2)c(C)n(C)c1C	6448	3	1	12	4	-21	-0.6

Grouped by structure: the entries above containing a CF3 group
SMILES	Autofluor counter	Sa ugtP lethal	BJeLR viability	Mtb hypoxia inh	Mtb hypoxia inh growth	PrP UTR inh	RN4220 kill
Cn1nccc1C(=O)N1CCN(c2cccc(C(F)(F)F)c2)CC1	5748	1	3	5	0	-3	1.4
CC(C)C(=O)NC(Nc1cc(C(F)(F)F)ccc1Cl)C(Cl)(Cl)Cl (centres undefined)	2226	-19	11	-2	-4	-12	2.3

More records
SMILES	Autofluor counter	Sa ugtP lethal	BJeLR viability	Mtb hypoxia inh	Mtb hypoxia inh growth	PrP UTR inh	RN4220 kill
N#Cc1cc([N+](=O)[O-])ccc1Oc1cccc(C=NNC(=O)c2cccc(Cl)c2)c1	.	-5	.	1	-1	.	-2.9
CC(C)(C)C(=O)NC(=S)NCCc1ccccc1	3281	12	-18	.	.	-30	1.9
NC(=O)c1sc2nc(-c3ccccc3)c3c(c2c1N)CCCC3	4536	6	0	7	5	-3	6.5
CCOC(=O)C1CCCN(S(=O)(=O)c2cc3c4c(c2)CCC(=O)N4CCC3)C1 (centres undefined)	5769	2	0	6	-2	-23	1.4
CCCCc1ccc(NC(=S)Nc2ccc(Nc3ccc(OC)cc3)cc2)cc1	1624	-5	-2	10	10	-1	-1.4
O=C(NCc1ccccc1)C1CCCN1S(=O)(=O)c1ccc(Cl)cc1 (centres undefined)	3883	3	-5	14	10	3	1.8
CCn1c(C)c(C(C)=O)c(N2CCN(c3ccc(OC)cc3)CC2)nc1=S	3381	-5	-3	-1	3	-6	4.2
CCn1cc(NC(=O)Nc2ccccc2C(=O)OC)c(C(N)=O)n1	8155	-2	11	9	3	.	-0.3
O=C(NC1=NCCS1)c1ccc(Cl)c(Cl)c1	3148	0	-7	2	1	-84	-0.8
O=C(COc1ccccc1)NC(Cc1c[nH]c2ccccc12)C(=O)O (centres undefined)	16391*	5	3	2	3	-9	3.8

Random excerpt: seven entries already listed
SMILES	Autofluor counter	Sa ugtP lethal	BJeLR viability	Mtb hypoxia inh	Mtb hypoxia inh growth	PrP UTR inh	RN4220 kill
CCCCc1ccc(NC(=S)Nc2ccc(Nc3ccc(OC)cc3)cc2)cc1	1624	-5	-2	10	10	-1	-1.4
O=C(NCc1ccccc1)C1CCCN1S(=O)(=O)c1ccc(Cl)cc1 (centres undefined)	3883	3	-5	14	10	3	1.8
O=C(NC1=NCCS1)c1ccc(Cl)c(Cl)c1	3148	0	-7	2	1	-84	-0.8
CCOC(=O)C1CCCN(S(=O)(=O)c2cc3c4c(c2)CCC(=O)N4CCC3)C1 (centres undefined)	5769	2	0	6	-2	-23	1.4
NC(=O)c1sc2nc(-c3ccccc3)c3c(c2c1N)CCCC3	4536	6	0	7	5	-3	6.5
CC(C)(C)C(=O)NC(=S)NCCc1ccccc1	3281	12	-18	.	.	-30	1.9
CCn1cc(NC(=O)Nc2ccccc2C(=O)OC)c(C(N)=O)n1	8155	-2	11	9	3	.	-0.3

Further entries.
SMILES	Autofluor counter	Sa ugtP lethal	BJeLR viability	Mtb hypoxia inh	Mtb hypoxia inh growth	PrP UTR inh	RN4220 kill
Cc1[nH]nc2c1C(c1ccccc1F)CC(=O)N2 (centres undefined)	3674	-1	5	17	0	-4	1.8
COc1ccc(C2CC(c3cccs3)=NN2C(=O)CCC(=O)O)cc1OC (centres undefined)	3004	.	-3	.	.	-9	.
Cc1cccc(NC(=S)N2CCN(C(=O)c3ccco3)CC2)c1	5292	3	-3	5	8	2	-0.3
CC1Cc2ccccc2N1S(=O)(=O)c1cccc(C(=O)NCCCn2ccnc2)c1 (centres undefined)	3770	6	0	-2	-4	-46	8.3
Cc1nn(-c2ccccc2)c(C)c1C=NNC(=O)CSc1nnc(SCc2ccc(Cl)cc2)s1	.	-23	.	7	2	.	1.6
Cc1ccsc1C(=O)OCC(=O)Nc1nnc(-c2ccccc2)o1	.	9	-8	9	4	-17	12
CC(Sc1nnc(NC2CC2)s1)C(=O)Nc1ccc(N2CCOCC2)cc1 (centres undefined)	4779	0	.	4	7	-36	-0.5
COc1ccc(C2=NOC(C(=O)Nc3ccc4c(c3)OCO4)C2)cc1OC (centres undefined)	3709	-8	0	1	3	-8	1.6
CC(/C=N/NC(=O)Cn1cnc2c1c(=O)n(C)c(=O)n2C)=C\c1ccccc1	2653	.	-21	.	.	-16	.
Cc1ccc(C(=O)NCC(=O)OC(C)C(=O)NC2CCCc3ccccc32)cc1 (centres undefined)	?	1	2	0	13	-8	2.5
CCN(CC)CCOC(=O)c1ccc(NC(=O)c2cccc(C)c2[N+](=O)[O-])cc1	2013	4	3	0	0	2	3.1
Cn1c(=O)c2c(nc(N3CCCCCC3)n2CC(=O)c2ccccc2)n(C)c1=O	3560	13	8	9	10	-13	2.6
Cc1ccc(C(=O)Oc2ccccc2N2C(=O)C3C4CCC(C4)C3C2=O)cc1 (centres undefined)	10231	8	2	5	6	-7	2.3
Cc1ccc(CSc2nnc(-c3ccncc3)n2N)cc1	.	4	4	6	-5	.	4.6
COCCNC(=S)N1CCN(c2ccc(Cl)cc2)CC1	1972	7	-11	22	14	-14	5.8
Cn1c(SC2CCCCC2=O)nnc1-c1ccncc1 (centres undefined)	10992	2	-12	6	11	.	2.9
CC(C)Cn1cc(C(=O)NCCCN2CCCC2=O)c2c3ccccc3n(C)c2c1=O	16933*	21	20	3	-2	-37	7.9
C=CCOc1ccc(CNCC2CCCO2)cc1 (centres undefined)	3716	4	24	-2	11	-11	1.9
CCCCn1c(=N)n(CC(O)COc2ccc(C)cc2)c2ccccc21 (centres undefined)	5866	-24	7	10	24	-1	-1.1
Cc1ccc(SC(C)c2nc(-c3cccnc3)no2)cc1 (centres undefined)	2427	2	13	2	-1	9	7.5
Cc1cc(/C=C2\SC(=S)NC2=O)c(C)n1-c1ccccc1	.	8	3	8	0	.	-9.7
CC[C@H](C)Cc1cn([C@@H](CCCCN)C(=O)NCCCCCCCCCCC(=O)N2CCNCC2)nn1	4884	.	-3	.	.	-19	.
